Screens from PubChem BioAssay.
RVFV N-RNA FP = inhibitors of RVFV nucleoprotein–RNA binding, primary screen, biochemical, fluorescence polarization; P21700; RVFV N-RNA binding; stronger effect = lower value; actives 0.1% (n = 20,000); AID 651828, 2012; % bound, % (concentration not given with the values);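 active = between 0 and 58% in either replicate with normal brightness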;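 note: 100 nL library stock added to about 12 µL; 100% = protein and probe without compound and 0% = probe alone; numbers are from one replicate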
Target sequence (P21700 whole entry, looked up): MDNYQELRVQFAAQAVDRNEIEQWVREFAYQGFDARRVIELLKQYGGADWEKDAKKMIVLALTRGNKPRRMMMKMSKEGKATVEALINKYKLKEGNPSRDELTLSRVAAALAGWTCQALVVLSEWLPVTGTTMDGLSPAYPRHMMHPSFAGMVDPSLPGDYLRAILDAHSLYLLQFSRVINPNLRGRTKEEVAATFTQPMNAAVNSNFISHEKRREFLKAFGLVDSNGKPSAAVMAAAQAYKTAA
An asterisk follows results filed as active; & = joins results of further samples. An excerpt. The share of hits here may be higher or lower than overall.

SMILES	RVFV N-RNA FP
Cc1nn(-c2ccccc2)nc1C(=O)Oc1cncc(Cl)c1	98
CC(C)CNC(=O)C1(c2cccs2)CCOCC1	89
Cc1cccc(-n2nc3c(c2NC(=O)Nc2cccc(Cl)c2)CSC3)c1	92
CC(C)OC(=O)C(C#N)c1nc2ccccc2nc1N1CCN(c2ccccc2)CC1 (stereo not given)	97
COc1ccccc1-c1noc(-c2ccccc2C(=O)NCc2ccco2)n1	101
CCOC(=O)Nc1cc(C(C)(C)C)on1	98
CCC(NC(=O)Cc1ccccc1)C(=O)O (stereo not given)	95
NC1=NC(=Nc2ccc(Cl)cc2)c2ccccc21	93
NCc1cc(=O)[nH]o1	91
O=C1CC(C(=O)c2ccccc2)N=C(Nc2ccc(Cl)cc2Cl)N1 (stereo not given)	93
CC1(C)C(C=C(Cl)Cl)C1C(=O)OC(C#N)c1cccc(Oc2ccccc2)c1 (stereo not given)	104
COc1ccc2oc(-c3ccc(OC)c(OC)c3)cc(=O)c2c1	98
CC(C)CC(=O)N1C(=O)c2cccc3c(S(=O)(=O)N(C)C)ccc1c23	101
COc1ccc(Cl)cc1N(CC(=O)Nc1ccccc1C(=O)N1CCOCC1)S(C)(=O)=O	93
COC(=O)C1=C(C)N(c2ccccc2)/C(=C/c2ccc(OC)cc2)C1=O	92
O=c1cc(-c2ccccc2)nc2nc[nH]n12	94
O=C1NC(=O)N(C2CCCCC2)C(=O)/C1=C\C=C\c1ccco1	101
CCCCc1ccc(NC(=O)CS)cc1	109
O=c1[nH]c(O)c2c1c1c3ccccc3nc1n1cncc21	86
CN(C)c1nc(=S)nc(NCc2ccccc2)[nH]1	101

Overlap with the part before: 8 entries, then new ones.
SMILES	RVFV N-RNA FP
CC(C)CC(=O)N1C(=O)c2cccc3c(S(=O)(=O)N(C)C)ccc1c23	101
COc1ccc(Cl)cc1N(CC(=O)Nc1ccccc1C(=O)N1CCOCC1)S(C)(=O)=O	93
COC(=O)C1=C(C)N(c2ccccc2)/C(=C/c2ccc(OC)cc2)C1=O	92
O=c1cc(-c2ccccc2)nc2nc[nH]n12	94
O=C1NC(=O)N(C2CCCCC2)C(=O)/C1=C\C=C\c1ccco1	101
CCCCc1ccc(NC(=O)CS)cc1	109
O=c1[nH]c(O)c2c1c1c3ccccc3nc1n1cncc21	86
CN(C)c1nc(=S)nc(NCc2ccccc2)[nH]1	101
CC1(C)Cc2ccccc2-c2nc(-c3ccccc3)n(N)c(=O)c21	92
C/C(=C/C(=O)C(F)(F)C(F)F)Nc1ccccc1	107
Cc1cc(=O)oc2c(/C=N\NC(=O)c3ccc(Br)cc3O)c(O)ccc12	92
CC(C)(C)CC(C)(C)NC(=O)Nc1cccc(Cl)c1	94
N#CCc1ccc(NC(=O)c2ccccc2C(=O)O)cc1	96
CCN1CCc2c(OCC(=O)NC3CCCCC3)cccc2C1=O	101
CN(c1ccccc1C(=O)NC(C)(C)C)S(C)(=O)=O	97
COc1ccc(C(=O)c2ccc(C)cc2)c(O)c1	105
CC1(C)O[C@@H]2C[C@H]3[C@@H]4C[C@H](F)C5=CC(=O)C=C[C@]5(C)[C@H]4[C@@H](O)C[C@]3(C)[C@]2(C(=O)CO)O1	97
CN(C)C1CCS(=O)(=O)C1 (stereo not given)	91

A different layout for 4 compounds above:
> Cc1cc(=O)oc2c(/C=N\NC(=O)c3ccc(Br)cc3O)c(O)ccc12
- RVFV N-RNA FP = 92

> CC(C)(C)CC(C)(C)NC(=O)Nc1cccc(Cl)c1
- RVFV N-RNA FP = 94

> N#CCc1ccc(NC(=O)c2ccccc2C(=O)O)cc1
- RVFV N-RNA FP = 96

> CCN1CCc2c(OCC(=O)NC3CCCCC3)cccc2C1=O
- RVFV N-RNA FP = 101

Additional compounds follow:
SMILES	RVFV N-RNA FP
CCC(C)c1ccc(OCC(=O)Nc2ccc(NC(=O)c3ccco3)cc2)cc1 (stereo not given)	95
CC(Sc1nnnn1C)C(=O)c1ccc(Cl)cc1 (stereo not given)	104
N#Cc1ccc(OCC(F)(F)C(F)F)cc1C#N	97
O=C(Nc1ccn(Cc2ccccc2)n1)c1ccccc1	87
COCC(=O)Nc1ccccc1C(N)=O	86
COC(=O)c1ccc(COC(=O)c2ccc(OC)c(OC)c2)cc1	92
NC(=O)c1cccc(NC(=O)C(F)(F)F)c1	108
Cc1ccc2nc(SCC(=O)O)cc(C)c2c1	95
COc1cc(CN2CC=C(c3ccc(F)cc3)CC2)cc(OC)c1	101
CCCCCC(O)CCCC(=O)O (stereo not given)	100
CC1=NN(c2cccc(SC(F)F)c2)C(=O)C1	98
COc1ccc(C(=O)/C(Br)=C\C(=O)O)cc1	100
O=C(Nc1ccccc1)Nc1c[nH]c2ccccc12	96
O=C1c2ccccc2C(=O)N1Cc1nc2ccccc2c(=O)n1CCN1CCOCC1	106
CC(C)(C)C1CCC(N2CCOCC2)CC1 (stereo not given)	102
CCCCOc1ccc(C(=O)Oc2cc(C(=O)OC)nn2C)cc1	86
O=C(c1cc2ccccc2o1)N1CCN(c2ccccc2)CC1	105
CS(=O)(=N/C=C(\C#N)C(=O)c1ccco1)c1ccc(Cl)cc1 (stereo not given)	110
CC1CCc2c(sc(NC(=O)c3cccs3)c2C(=O)N2CCCCC2)C1 (stereo not given)	94
CN(C)c1c(F)cc(C(=O)NC(=O)Nc2nnc(C(F)(F)F)s2)cc1F	92
CC1=C(CC(=O)O)c2cc(F)ccc2/C1=C/c1ccc(S(C)=O)cc1 (stereo not given)	86
CCCCC(=O)Nc1ccc(S(=O)(=O)N2CCCCCC2)cc1	94
Cc1cc(NC(=O)CCCN2C(=O)/C(=C\c3ccco3)SC2=S)no1	97
NC(=O)c1ccc(-n2nnnc2Oc2ccccc2C(=O)N2CCOCC2)cc1	91
O=C1CCC(=O)N1N1C(=O)C2C3c4ccccc4C(c4ccccc43)C2C1=O (stereo not given)	94
CCC12CCCN3CCc4c(n(c5ccccc45)C(=O)C1)C32 (stereo not given)	90
O=C(O)CSCC(=O)Nc1ccccc1-c1ccccc1	97
Cc1cn2c(=O)c(C(=O)NC3=NCCS3)cnc2s1	89
CCC(=O)N=c1sc2c(C)cc(C)cc2n1CC	99
CC(C)(C)OC(=O)/C(C#N)=C/c1ccc(C#N)cc1	93
O=C(Nc1ccc2c(c1)oc1ccc(S(=O)(=O)N3CCCC3)cc12)C1CC1	87
Cc1ccc(C)n1-c1n[nH]c(=S)s1	91
C[C@H]1C[C@@H]2[C@H]([C@@H](O)C[C@@]3(C)[C@H]2CC[C@]3(O)C(=O)CO)[C@@]2(C)C=CC(=O)C=C12	97&91
CS(=O)(=O)c1ccc(C(=O)N2CCN(c3ccccc3)CC2)cc1	98
COc1ccc(S(=O)(=O)/C=C/c2ccccc2)cc1	100
O=C(CN1C(=O)C2C3C=CC(C3)C2C1=O)OCC(=O)c1ccccc1 (stereo not given)	95
O=C(CCN1C(=O)c2ccccc2C1=O)Oc1c(-c2ccco2)oc2ccccc2c1=O	95
COc1ccccc1N=Cc1sc2ccccc2c1O	128
Cc1nc2cc(O)c(O)cc2s1	93
COc1ccc(/C=C2\SC(=O)NC2=S)cc1OC	88
N#CCSc1nc2ccc(N)cc2s1	94
COc1ccc(C(=S)N2CCCC2)cc1OC	97
COc1ccccc1CCNC(=O)c1nccnc1C(=O)O	101
CC[C@H](c1ccc(O)cc1)[C@@H](CC)c1ccc(O)cc1	100
N#C/C(=C\c1ccc(Sc2nc3ccccc3[nH]2)o1)c1ccccc1	89
CCCCCCN(CCCCCC)C(=O)Cc1c(-c2ccc(F)cc2)[nH]c2ccccc12	92
COc1ccccc1NC(=O)NC(C)(C)CC(C)(C)C	101
O=C(Sc1ccc(Cl)cc1)c1ccno1	103
COc1ccc(NC(=O)CSc2nnc(N)n2CC(=O)Nc2ccc(OC)cc2)cc1	86
COC(=O)c1nnn(-c2nonc2N)c1CSc1ccccn1	103
Later entries.
SMILES	RVFV N-RNA FP
COC(=O)CSc1nnc(Cc2cc(=O)[nH]c(=O)[nH]2)n1-c1ccc(OC)cc1	96
O=C(Cc1ccccc1)Nc1ccc(I)cn1	104
N#Cc1cccc(CSc2nnc(Nc3ccccc3)n2-c2ccccc2)c1	97
CCNC(=O)c1cc(Br)ccc1Cl	93
O=C(NC(=S)Nc1ncn[nH]1)c1ccccc1	101
CCCC12CCC(O)(CC1)C/C2=N\NS(=O)(=O)c1ccc(C)cc1	102
O=C(NCCc1ccccc1)c1cccs1	79
Nc1nc2c(o1)oc1nc(-c3ccccc3)cc(-c3ccccc3)c12	93
C#CC(N)CCC(=O)O (stereo not given)	99
NCCCN1CCN(c2ccccc2)CC1	95
CCc1nnc(NC(=O)CSC2=NCCS2)s1	105
CSc1nc(NS(=O)(=O)c2cc(Cl)sc2Cl)nn1C	89
O=C(c1ccc(N2CCOCC2)nc1)N1CCN(C(c2ccccc2)c2ccccc2)CC1	97
CC(=O)OCC(=O)[C@@]12OC(C)(C)O[C@@H]1C[C@H]1[C@@H]3C[C@H](F)C4=CC(=O)C=C[C@]4(C)[C@@]3(F)[C@@H](O)C[C@@]12C	92
C#CCO/N=C1/CCCc2nonc21	96
CCc1c(C(=O)N2CCN(Cc3cccc(OC)c3)CC2)csc1C	92
O=C(Oc1ccc(-c2ccccc2)nn1)c1cccs1	82
Cc1nc2ccc(Br)cc2c(=O)n1-c1ccccc1N1CCOCC1	92
COC(=O)[C@@H](N)Cc1ccc(O)c(O)c1	97
O=C(Cc1ccc(F)cc1)Nc1ccc(CN2CCCC2)cc1	100
O=C(C1CCCCC1)N1CCN=C1SCc1cccnc1	96
O=C1CC(N2CCOCC2)C(=O)N1 (stereo not given)	102
COC(=O)Cn1c(=NC(=O)CSCC(=O)Nc2nccs2)sc2cc(OC)ccc21	92
C#C[C@]1(OC(C)=O)CC[C@H]2[C@@H]3CCC4=CC(=O)CC[C@@H]4[C@H]3CC[C@@]21C	106
O=C(CNCc1ccc2c(c1)OCO2)NCc1ccc2c(c1)OCO2	106
c1ccc(-c2nc(-c3ccn[nH]3)cs2)cc1	91
Cc1cc(NCc2cccnc2)no1	98
Cc1cnc(C(=O)O)c[n+]1[O-]	95
NC(=S)N/N=C1\CCCC\C1=C/c1ccco1	96
C=CCN1C(=O)/C(=C2\SC(N)=NC2=O)c2ccccc21	107

4 structures from above, arranged by number of heavy atoms, ascending.
SMILES	RVFV N-RNA FP
NC(=S)N/N=C1\CCCC\C1=C/c1ccco1	96
C=CCN1C(=O)/C(=C2\SC(N)=NC2=O)c2ccccc21	107
C#C[C@]1(OC(C)=O)CC[C@H]2[C@@H]3CCC4=CC(=O)CC[C@@H]4[C@H]3CC[C@@]21C	106
COC(=O)Cn1c(=NC(=O)CSCC(=O)Nc2nccs2)sc2cc(OC)ccc21	92

(listing goes on)
SMILES	RVFV N-RNA FP
Cc1[nH]n(-c2ccccc2)c(=O)c1Sc1c(F)c(F)c(F)c(F)c1F	110
N#C/C(=C\N1CCN(Cc2ccccc2)CC1)S(=O)(=O)c1ccc(Cl)cc1	98
Cc1[nH]c2c(C)cccc2c(=O)c1CN1CCOCC1	99
CCCNS(=O)(=O)c1ccc(CCC(=O)NC2CCCC2)cc1	95
COC(=O)c1ccccc1NC(=O)CSc1nnc(-c2cc3cccc(OC)c3o2)n1C	90
O=S(=O)(Cc1ccc(Cl)cc1)N1CCCC1	95
C=CCN(CC=C)C(=S)Nc1ccc(S(N)(=O)=O)cc1	93
COc1ccc(/C=C2\C(=O)NC(=O)N(C)C2=O)cc1	92
Clc1ccc2c(c1)C(N1CCNCC1)=Nc1ccccc1O2	96&98&96
NC1(C(=O)O)CCc2cc(C(=O)O)ccc21 (stereo not given)	98
O=C(NCCc1nnc2ccc(NCCO)nn12)c1ccccc1	90
O=C(Oc1ccc(Cl)cc1Cl)c1csc(-c2ccc3nonc3c2)n1	98
COc1ccc(N(C(C)=O)c2nc3ccccc3[nH]2)cc1	100
CCC(=O)Nc1ccc2c(c1)oc1ccccc12	96
CCn1c(SCCOc2ccc(OC)cc2)nnc1C(CO)NC(=O)c1ccc(OC)cc1 (stereo not given)	101
CN(C)C(=O)CSc1nc(-c2ccccc2)c(-c2ccccc2)o1	113
Cc1nc(-c2ccc(S(=O)(=O)N3CCCN(c4ccc(C(F)(F)F)cn4)CC3)s2)cs1	100
c1ccc(C2CC3CC(c4ccccc4)N2O3)cc1 (stereo not given)	101
CC1(C)CC(=O)C/C(=N/NC(N)=S)C1	99
Cc1ccc(OCCNC(=O)C2CCCCC2)cc1	91
O=C(Nc1cccc(-c2ccc3nncn3n2)c1)c1ccco1	92
COC(=O)C1=C(NC(=O)c2cccc3ccccc23)CCS1	97
CCC1CCCCN1C(=O)COc1cc2oc(=O)c3c(c2cc1Cl)CCC3 (stereo not given)	91
Oc1ccc(C=Nc2cccc(C(F)(F)F)c2)c(O)c1	99
CCS(=O)(=O)N1CCN=C1SCc1ccccc1	101
O=C(CSc1ccnc(=O)[nH]1)N1CCCCC1	92
COCC1=C(C(=O)OC(C)OC(=O)OC(C)C)N2C(=O)[C@@H](NC(=O)C(=NOC)c3csc(N)n3)[C@H]2SC1 (stereo not given in full)	98
COc1ccc(/C(C)=N/NC(=O)CC2(C)OCCO2)c(OC)c1	100
CSc1ccccc1-n1nnnc1SCc1ccccc1	94
Cc1ccc(N2C(=O)c3ccccc3C2(O)Cc2ccccc2)cc1 (stereo not given)	98
CCOC(=O)N1CCN(C(=O)C(C)Oc2ccc(C(C)(C)C)cc2)CC1 (stereo not given)	95
Cc1onc(-c2c(Cl)cccc2Cl)c1NC(=O)N/N=C/c1ccccn1	96
O=C1Nc2ccccc2C1(O)C(F)(F)F (stereo not given)	93
CCOCC(=O)Nc1ccc(OCC)cc1	92
CCOc1ccc(OCCn2ccnc2)cc1	91
COc1ccc(-c2cc(=O)oc3c(C)c(O)ccc23)cc1	111
CCc1ccc(C(=O)Nn2cnnc2)cc1	92
COc1ccccc1OCC#CCSc1ncccn1	89
C[C@]12CC[C@@H]3c4ccc(O)cc4CC[C@H]3[C@@H]1C[C@@H](O)[C@@H]2O	100
Cc1noc(C)c1NC(=O)NCC1CCN(S(=O)(=O)c2ccccc2)CC1	108
COc1ccc(N2CCN(C(=O)c3ccc(-n4cnnc4)cc3Cl)CC2)cc1	97
CC(C)(Oc1ccc(Cl)cc1)C(=O)Nc1ccc2oc(-c3cccnc3)nc2c1	96
